# gsp antagonist = antagonists of gsp mutant (McCune-Albright syndrome). gsp-mutant cells, cAMP HTRF, 30 min; control for the full effect not named in the record. Potency, µM (highest dose often 76.9 µM), without a hit: at the highest dose activity change, negative = inhibition, most hits filed as inhibitors. 0.4% of 340,000 active. AID 624288; active = falling curve of any shape with a large fitted effect; inconclusive = falling curve, mostly with a smaller effect; inactive = flat or rising curve; cell line not stated here;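 note: intracellular cAMP measured with PDE inhibitor Ro 20-1724 present during compound exposure; potency is the fitted concentration of half-maximal effect; % is set by controls: 0 for no effect and ±100 for the full control effect; nearly all actives have a fitted effect of over 65% in size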
#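 HTRF cAMP read-out (cAMP-d2 plus anti-cAMP antibody-K in lysis buffer, 30 min RT). Before lysis, cells are exposed to compounds with […] for 30 min at 37C in DPBS containing Ca/Mg, BSA and Tween 20.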
# gsp ag = agonists of gsp mutant (McCune-Albright syndrome); gsp mutant cells, cAMP HTRF, 30 min; control for the full effect not named in the record; Potency, µM (highest dose often 76.9 µM), inactives show at the highest dose activation (cAMP increase), hits mostly activators; 0.13% of 340,000 active; AID 624287; active = well fitted activation curve with a large enough effect; inconclusive = small, poorly fitted or top-dose-only effect, or another doubt; inactive = no such curve, though single readings can be large or run the other way; cell line not stated here;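 note: phosphodiesterase inhibitor Ro 20-1724 added with compounds to block cAMP breakdown; potency is the fitted concentration of half-maximal effect; nearly all actives have a fitted effect of over 60% in size; about a fifth of the inactives were tested at one dose only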
#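 Cells in DMEM/10% FBS with G418 were pretreated with compounds in DMSO plus […] (300 uM stock) for 30 min at 37C. cAMP was measured by HTRF (cAMP-d2 plus anti-cAMP antibody-K) after 30 min at room temperature.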
# Sfp PPTase inh = Sfp phosphopantetheinyl transferase inhibition. Potency, µM, without a hit: max response, negative = inhibition, usual class: inhibitors. AID 1490. 3.5% of 310,000 active. Biochemical Sfp PPTase activity, qHTS; active = well fitted inhibition curve with a large enough effect; inconclusive = small, poorly fitted or top-dose-only effect, or another doubt; inactive = no such curve, though single readings can be large or run the other way;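 note: the enzyme is Sfp with the accession as filed and its product quenches rhodamine fluorescence; potency is the fitted concentration of half-maximal effect; 0% = enzyme reaction without inhibitor and -100% = no enzyme wells; top concentration of the series not given in the record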
#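 Fluorescence-quenching assay with 15 nM Sfp, 5 uM rhodamine-CoA and 12.5 uM BHQ-2-labelled ybbR peptide in pH 7.6 Hepes/MgCl2 buffer. Enzyme was pre-incubated with compound for 15 min at room temperature. Rate was taken from the 30-min fluorescence change (525/598 nm).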
# ClpP mod = qHTS Assay for Activators of ClpP; ATP-dependent Clp protease proteolytic subunit (Bacillus subtilis (strain 168)), P80244; purified B. subtilis ClpP, FRET peptide cleavage, 20 min; Potency, µM (top dose mostly 57.5 µM), for the others: top-dose activity change, negative = active; 1.9% of 340,000 active; AID 651965, 2013; active = well fitted falling curve with a large enough effect; inconclusive = small, poorly fitted or top-dose-only effect; inactive = no such curve, though single readings can be large or run the other way; note: potency is the fitted concentration of half-maximal effect; the source files actives as falling curves though it sought activators and does not explain the sign; nearly all actives have a fitted effect of over 65% in size; many hits overshoot -100%
# Target sequence (P80244 whole entry, looked up): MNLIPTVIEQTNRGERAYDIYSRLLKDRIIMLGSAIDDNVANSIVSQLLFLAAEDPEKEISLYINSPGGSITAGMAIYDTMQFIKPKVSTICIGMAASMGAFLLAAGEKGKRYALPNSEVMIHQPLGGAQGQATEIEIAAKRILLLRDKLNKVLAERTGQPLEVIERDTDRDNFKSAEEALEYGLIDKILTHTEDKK
#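 Buffer: 100 mM Tris/HCl pH8, 100 mM KCl, 0.05% low protease BSA, 2.5% glycerol, 0.01% Tween-20. ClpP 10 microg/mL final; 20 min RT; delta FRET normalized to ADEP and DMSO controls.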
# D2 agonist = agonists of human D2 dopamine receptor (beta-arrestin) | activation, % (no concentration beside the values) | 0.084% of 360,000 active | DiscoveRx PathHunter D2 beta-arrestin, luminescence, 90 min; 100% = 57 uM dopamine signal | P14416; in the data active = activation above about 40%; inconclusive = about 15% to 40%; inactive = below about 15%; note: compound concentration not given in the record; the text of the record calls up to 30% inactive
# Target sequence (P14416 whole entry, looked up): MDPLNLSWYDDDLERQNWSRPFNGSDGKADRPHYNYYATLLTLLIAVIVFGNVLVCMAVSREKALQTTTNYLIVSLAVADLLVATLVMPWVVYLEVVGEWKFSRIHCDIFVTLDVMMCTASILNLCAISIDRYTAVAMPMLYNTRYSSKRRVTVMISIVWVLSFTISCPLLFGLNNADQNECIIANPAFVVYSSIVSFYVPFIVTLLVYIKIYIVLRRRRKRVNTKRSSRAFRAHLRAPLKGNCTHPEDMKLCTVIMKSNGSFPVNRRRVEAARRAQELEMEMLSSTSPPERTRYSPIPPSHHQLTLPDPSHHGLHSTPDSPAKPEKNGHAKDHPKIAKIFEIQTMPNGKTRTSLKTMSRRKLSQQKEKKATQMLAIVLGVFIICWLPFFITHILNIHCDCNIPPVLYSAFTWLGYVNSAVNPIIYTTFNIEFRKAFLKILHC
#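 Agonist mode: compounds alone added to overnight-plated D2 PathHunter cells for 90 min at 37 C, with 57 uM final dopamine (EC100) defining full response. Beta-arrestin recruitment detected by chemiluminescent reagent, read after 1 h at ambient temperature.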
# Menin MLL FP FL = menin-MLL binding inhibition, fluorescein peptide. Fluorescence polarization, fluorescein-MLL peptide displacement from menin. 290,000 tested, under 10 active. FP activity change, % at 61.4 µM; inconclusive = falling polarisation curve, or a change in total fluorescence; inactive = total fluorescence flat and polarisation flat or rising; no compound was filed as active; the % refers to the polarisation; negative = inhibition;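 note: % of control where 0% means no effect; inhibitors lower the polarisation; unlabelled MLL peptide was the positive control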
# PINK1 modulator = changes PINK1 expression; PINK1 immunofluorescence, high-content cytometry, 24 h; Potency, µM (doses to about 76.6 µM), for inactives: at the top dose activation (PINK1 increase), hits mostly activators; 0.2% of 410,000 active; active = well fitted activation curve with a large enough effect; inconclusive = small, poorly fitted or top-dose-only effect; inactive = flat fitted curve, though single readings scatter; cell line not stated here;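 note: potency is the fitted concentration of half-maximal effect; % of control where 0% means no effect; nearly all actives have a fitted effect of over 65% in size; a mitochondrial uncoupler was the plate control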
#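 Readout is PINK1 immunofluorescence, quantified alongside mitochondrial, cell and nuclear markers by laser-scanning microplate cytometry. Cells from a stable line were exposed to compound titrations (5 concentrations) for 24 hours, with CCCP controls.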
# * hit, by the source's call; ? = inconclusive; . = no result given; & = joins results of further samples; [ ] = another dose, or the depositor's remark. Hits appear at their usual frequency; 5.1% or so of the library scored in one or more.
SMILES,gsp antagonist,gsp ag,Sfp PPTase inh,ClpP mod,D2 agonist,Menin MLL FP FL,PINK1 modulator
Cc1cc(=O)[nH]c(SCC2(O)C3CC4CC(C3)CC2C4)n1 (stereo not drawn),22%,4%,-15%,-2.7%,-4.8,2.4,0.1%
CN(Cc1cccs1)C(=O)CCc1ccc(S(=O)(=O)N2CCOCC2)cc1,-11%,13%,-6%,1.6%,-2.2,2.9,-0.6%
CCCCn1c(N)c(N(CCOC)C(=O)Cn2c(=O)oc3ccccc32)c(=O)[nH]c1=O,4%,4%[15.4 µM],.,.,3.0,.,-1.4%
COc1ccc2nc(CC(C)(C)CC(=O)O)c[n+]([O-])c2c1,-5%,-22%,23%,16µM*,-1.4,-7.4,0.6%
COc1ccccc1-c1ccc(SCc2ccc([N+](=O)[O-])cc2)nn1,-11%,-18%,15%,3.3%,-1.7,-1.4,0.7%
CCN(CC)C(=O)CSc1nc2ccccc2c(=O)[nH]1,-3%,0%,-9%,-4.3%,-1.7,1.8,2.7%
C/C(=N/NS(=O)(=O)c1ccccc1)c1ccc(Cl)cc1,-12%,13%[15.4 µM],15%,.,0.8,-1.4,-0.8%
COc1ccc(C)cc1NC(=O)Nc1cccc(C)c1,-10%,?,-4%,0.2%,1.0,-1.7,15%
CCN1C(=O)[C@H]2[C@@H](c3ccccc3)N[C@]3(CCCN(Cc4ccccc4)C3=O)[C@H]2C1=O,.,-41%[inhibitor],.,1.0%,-7.8,.,1.0%
CC(C)(C)c1ccc(C(=O)NCC(=O)OCC(=O)N2CCCC2)cc1,-5%,16%,.,-2.9%,4.2,.,0.3%

# Three entries picked at random from those above:
SMILES,gsp antagonist,gsp ag,Sfp PPTase inh,ClpP mod,D2 agonist,Menin MLL FP FL,PINK1 modulator
CC(C)(C)c1ccc(C(=O)NCC(=O)OCC(=O)N2CCCC2)cc1,-5%,16%,.,-2.9%,4.2,.,0.3%
CCCCn1c(N)c(N(CCOC)C(=O)Cn2c(=O)oc3ccccc32)c(=O)[nH]c1=O,4%,4%[15.4 µM],.,.,3.0,.,-1.4%
Cc1cc(=O)[nH]c(SCC2(O)C3CC4CC(C3)CC2C4)n1 (stereo not drawn),22%,4%,-15%,-2.7%,-4.8,2.4,0.1%

# Other results
SMILES,gsp antagonist,gsp ag,Sfp PPTase inh,ClpP mod,D2 agonist,Menin MLL FP FL,PINK1 modulator
CCCCCn1c(NCc2ccco2)nc2ccccc21,-2%,-13%,19%,-1.6%,-2.3,3.1,5.5%
Clc1ccc(-c2csc(N/N=C\c3cccnc3)n2)cc1,-21%,-26%,56µM*,1.9%,13,0.1,4.6%
O=C(Nc1ccccc1O)c1ccc([N+](=O)[O-])cc1,1%,-110%[inhibitor],20%,0.8%,14,-1.7,2.2%
Cc1cccc(COC(=O)C(Cc2ccccc2)NC(N)=O)c1 (stereo not drawn),3%,10%,18%,.,0.3,3.3,2.7%
CC(=O)N1c2ccc(S(=O)(=O)N3CCC(C(=O)NC4CCCC(C)C4C)CC3)cc2CC1C (stereo not drawn),1%,8%,5%,1.7%,-1.5,1.5,2.8%
COc1ccc(Cl)cc1NC(=O)CSc1nc(N2CCCCC2)nc(N2CCCCC2)n1,10%,?,-4%,3.4%,-3.8,-2.6,0.3%
Cc1cc(C(=O)NCC2CCCCC2)ccc1[N+](=O)[O-],-4%,0%[15.4 µM],8%,.,-1.2,-1.9,8.7%
CC(C)(C)OC(=O)NCCCCCNC(=O)c1nc[nH]c1C(=O)NCCCCCNC(=O)OC(C)(C)C,?,-26%,.,0.3%,9.2,.,-0.7%
O=C(CN(C(=O)CNC(=O)c1cccs1)c1cccc(F)c1)NC1CCCC1,2%,6%[15.4 µM],10%,.,-3.7,.,1.0%
Cc1c(C(=O)Nc2ccc3oc(-c4cccnc4)nc3c2)oc2ccccc12,6%,?,-8%,8.9µM*,1.1,3.7,6.2%
Cc1ccc(NC(=O)C2CCN(c3ncnc4c3nc3n4CCCCC3)CC2)nc1,-12%,-18%,14%,-2.3%,-2.2,.,8.2%
CCC1CCCCN1C(=O)c1ccc(OC2CCN(C(=O)C3CC3)CC2)cc1 (stereo not drawn),-9%,26%[15.4 µM],-3%,.,-1.3,1.1,1.5%
N#Cc1ccccc1OCC(=O)NC(N)=O,11%,10%,20%,-1.2%,1.0,1.5,0.1%
CN1C(=O)NC(c2ccc(O)cc2)C2=C1CN(c1cccc3ccccc13)C2=O (stereo not drawn),10%,-1%[15.4 µM],-26%,.,1.5,1.8,2.9%
CCOc1ccc2nc(N3C(=O)CNC3=S)sc2c1,-16%,?,-13%,.,-4.5,-4.7,1.1%
COc1cc2[nH]c(C(=O)NCC3CCCO3)cc2c(OC)c1OC (stereo not drawn),10%,-20%,1%,.,-1.4,1.6,2.3%
CN(C)CCNc1ncnc2c1sc1nc(-c3ccccc3)c3c(c12)CCCC3,6%,3%[15.4 µM],35µM*,.,2.9,26,-1.9%
COc1ccccc1C(=O)NNC(=O)CN(C)S(=O)(=O)c1ccc(Cl)cc1,.,-58%[inhibitor],.,-0.4%,-3.1,.,-1.1%
COc1cccc(CN2CC(C(=O)N(C)CCc3ccccc3)CCC2=O)c1 (stereo not drawn),-2%,-35%[inhibitor],18%,-1.4%,-0.5,1.1,-0.9%
O=S(=O)(CC(O)CS(=O)(=O)c1ccc(Cl)cc1)c1ccccc1 (stereo not drawn),6%,9%,21%,0.1%,-5.4,0.0,3.5%
CCN(CC)CCNC(=O)c1sc2ncn(CC(=O)Nc3ccc(C)c(Cl)c3)c(=O)c2c1C,5%,9%[15.4 µM],-4%,.,2.9,-2.5,2.7%
CN1CCN(CCC=C2c3ccccc3Sc3ccc(S(=O)(=O)N(C)C)cc32)CC1,7%,.,?,-2.3%,1.2,-6.6&-0.4,0.9%
Cc1c(Cl)cccc1NC(=O)c1nc(C)n(-c2cc(OC(C)C)c(Cl)cc2Cl)n1,-12%,-55%[inhibitor],1%,?,-1.8,4.5,.
CCCN(CCC)C(=O)CCSCCC(=O)N(CCC)CCC,9%,-5%,-13%,-1.3%,-0.2,4.7,0.1%
O=S(=O)(c1ccc(Cl)cc1)N1CCCC1c1nc(-c2cccc(Cl)c2)no1 (stereo not drawn),-23%,-13%,2%,0.6%,-3.0,-0.3,0.6%
O=C1CNC(=S)N1CCc1ccc(Cl)cc1,10%,-25%,17%,.,-0.9,3.9,0.7%
Oc1ccc[n+](/C=C\c2ccccc2)c1,2%,.,.,-12%,0.3,.,-0.8%
COC(=O)c1cc(C(=O)OCC(=O)NNC(=O)c2cccs2)cc([N+](=O)[O-])c1,0%,11%[15.4 µM],.,.,8.1,.,2.8%
COc1ccccc1NS(=O)(=O)c1cc(NC(=O)COc2ccccc2)ccc1N1CCOCC1,-7%,?,.,1.5%,0.5,.,1.8%
CC(=O)c1cccc(NC(=O)COC(=O)c2ccccn2)c1,3%,-1%,22%,.,-3.4,-1.3,-0.2%
O=C(CCCN1C(=O)/C(=C/c2ccccc2)SC1=S)Nc1ccc(C(=O)O)c(O)c1,-12%,29%[15.4 µM],13%,.,-6.0,.,0.0%
COc1ccc(Cn2c(=O)n(Cc3ccco3)c(=N)c3c4c(sc32)COC(C)(C)C4)cc1,-3%,-3%,2%,-2.4%,-3.9,6.2,2.7%
COc1ccc(OC)c(C(=O)/C=C/c2ccccc2C(F)(F)F)c1,-28%,-58%[inhibitor],-29%,0.5%,-6.9,-0.4,-7.1%
COc1ccc(CNCCCn2cnc3c(SC)ncnc32)cc1,.,6%,.,-1.9%,-5.1,.,1.0%
COc1ccc(C2=NN(C(=O)CSc3nnc(-c4ccccc4F)o3)C(c3ccco3)C2)cc1 (stereo not drawn),1%,-34%[inhibitor],-12%,-11%,0.7,1.3,-1.8%
COc1ccc(Nc2nnc(SCC3CCCO3)s2)cc1 (stereo not drawn),0%,-7%[15.4 µM],3%,-0.9%,-3.0,-2.0,1.9%
CC(=O)c1cccc(NC(=O)/C(=C/c2ccco2)NC(=O)c2ccco2)c1,-12%,19%,8%,0.8%,1.0,.,0.4%
CCOC(=O)CSc1nc(C)c2ccc(C)cc2n1,-2%,2%,15%,-6.1%,-2.0,0.7,-0.3%
COc1ccc(NC(=O)Nc2ccc(Br)cn2)cc1OC,1%,2%,1%,-0.1%,2.1,-1.0,-0.5%
c1ccc(Oc2nc3ccccc3n3cccc23)cc1,-7%,1%,-12%,28µM*,-2.4,5.0,0.2%
CCn1cc(C(=O)N[C@H](C(=O)NCCO)C(C)C)c(=O)c2cc3c(cc21)OCO3,9%,-4%,15%,.,-6.2,0.1,1.2%
COc1ccc(C2C(C(=O)c3ccc(C)o3)=C(O)C(=O)N2Cc2ccco2)cc1OC (stereo not drawn),17%,?,45µM*,0.6%,3.5,.,1.0%
NS(=O)(=O)c1ccc(NC(=O)c2ccc(CNS(=O)(=O)c3cc(C(F)(F)F)ccc3Cl)cc2)cc1,1%,13%,0%,-1.8%,-1.2,5.6,25%
O=C(/C=C/c1ccc(N2CCOCC2)cc1)c1ccccc1,-10%,-4%[15.4 µM],?,.,-3.4,?,1.4%
Cc1ccc(-n2c(=O)cc(N3CCC(C)CC3)[nH]c2=O)cc1,-8%,-23%,-3%,-0.9%,-1.4,0.8,-0.9%[38.3 µM]
O=C(Nc1cccc(F)c1)N1CCCC(CNS(=O)(=O)Cc2ccccc2)C1 (stereo not drawn),-17%,14%[15.4 µM],-1%,-0.5%,-13,-0.2,2.6%
CCOc1ccc(NC(=O)/C=C/c2ccccc2)c([N+](=O)[O-])c1,14%,6%,16%,-1.0%,7.0,0.6,?
CC(C)(C)CC(=O)Nc1nn[nH]n1,7%,4%,-3%,-2.2%,-2.4,5.9,-1.3%
CC[N+]1(CC)CC2=Cc3ccccc3CC2C1 (stereo not drawn),9%,-25%,5%,-8.0%,-0.3,-1.6,2.5%
